Screening data: PubChem BioAssay, National Center for Advancing Translational Sciences (NCATS)
StopGo reporter – High Throughput Screening for Foot and Mouth Disease Virus Antivirals; human cells with a luciferase reporter of 2A StopGo recoding; control for the full effect not named in the record; Potency, µM (titrated, usually from 57.9 µM), inactives show at the highest dose signal change, negative = less light; 1.2% of 410,000 active; AID 1159524, 2015; active = well fitted falling curve with a large enough effect; inconclusive = small, poorly fitted or top-dose-only effect; inactive = no such curve, though single readings can be large or run the other way; tested in HEK293T cells; further: on the % scale 0 is the no-effect control and ±100 the full control effect; nearly all actives have a fitted effect of over 45% in size; luciferase light after 4 h
LASV entry inh – qHTS for Inhibitors of binding or entry into cells for Lassa Virus; AID 540256, 2011; 1.2% of 300,000 active; Lassa virus pseudotype entry inhibition, cell reporter; control for the full effect not named in the record; Potency, µM (doses to about 37.9 µM), for inactives: at the top dose activity change, negative = inhibition, hits mostly inhibitors; active means well fitted inhibition curve with a large enough effect; inconclusive means small, poorly fitted or top-dose-only effect, or effect the other way; inactive means flat fitted curve, though single readings scatter; tested in HEK293 cells; further: on the % scale 0 is the no-effect control and ±100 the full control effect; nearly all actives have a fitted effect of over 50% in size; luciferase read-out
MARV entry inh – qHTS for inhibitors of binding or entry into cells for Marburg Virus. Potency, µM (series often up to 37.8 µM), for inactives: at the top dose activity change, negative = inhibition, most hits filed as inhibitors. Marburg virus pseudotyped entry inhibition, cell reporter; control for the full effect not named in the record; about a third of the inactives were read at about 46 µM. 1.8% of 300,000 active; active = well fitted inhibition curve with a large enough effect; inconclusive = small, poorly fitted or top-dose-only effect, or effect the other way; inactive = flat fitted curve, though single readings scatter; tested in HEK293 cells; about a fifth of its hits are not listed in these tables; further: on the % scale 0 is the no-effect control and ±100 the full control effect; luciferase read-out
SARS PLP yeast – qHTS of Yeast-based Assay for SARS-CoV PLP | Potency, µM (highest dose often 32.9 µM), without a hit: at the highest dose activity, positive = growth rescue | 0.19% of 330,000 active | S. cerevisiae expressing SARS-CoV PLpro, growth rescue; control for the full effect not named in the record; further: 0% is about no effect; nearly all actives have a fitted effect of over 55% in size; growth read by luminescence after 48 h
Cruzain inh Det – qHTS Assay for Promiscuous and Specific Inhibitors of Cruzain (with detergent); Cruzipain (Trypanosoma cruzi), P25779; purified cruzain, Z-FR-AMC fluorescence, 0.01% Triton; Potency, µM, inactives show max response, negative = inhibition, most hits filed as inhibitors; 0.43% of 200,000 active; active means well fitted curve in the direction sought with a large enough effect; inconclusive means small, poorly fitted or top-dose-only effect, or another doubt; inactive means no such curve, though single readings can be large; an effect the other way counts as inactive or inconclusive;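 further: plate controls were neutral wells for no effect and buffer without enzyme for full effect; nearly all actives have a fitted effect of over 40% in size; top concentration of the series not given in the record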
Target sequence (P25779 123-467 limits assumed): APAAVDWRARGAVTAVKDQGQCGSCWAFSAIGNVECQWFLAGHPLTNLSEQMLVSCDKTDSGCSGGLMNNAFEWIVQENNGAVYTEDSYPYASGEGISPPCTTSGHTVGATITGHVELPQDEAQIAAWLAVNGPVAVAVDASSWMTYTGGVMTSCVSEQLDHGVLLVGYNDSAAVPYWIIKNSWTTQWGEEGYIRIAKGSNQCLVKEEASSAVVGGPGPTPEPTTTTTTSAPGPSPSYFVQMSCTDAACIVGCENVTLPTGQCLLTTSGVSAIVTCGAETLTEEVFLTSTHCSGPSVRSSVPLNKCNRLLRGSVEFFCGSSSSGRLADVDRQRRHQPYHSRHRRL
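Enzyme 1.5 nM, Z-FR-AMC 2 uM, NaOAc 100 mM pH 5.5, DTT 5 mM, Triton X-100 0.01%; 15 min RT compound preincubation; kinetic ex360/em450, 60 s delta.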
NS1 inh – qHTS Assay for Inhibitors of Influenza NS1 Protein Function. Potency, µM (top dose mostly 46.1 µM), for inactives: at the top dose activity, positive = more growth. 0.4% of 270,000 active. S. cerevisiae slowed by influenza A NS1, growth recovery by OD600; further: actives are rising curves; nearly all actives have a fitted effect of over 50% in size
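Growth recovery, yeast-based: influenza A NS1 expressed in S. cerevisiae causes slow growth, and suppressors are detected by OD600. The parent strain without NS1 is used as positive control.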
RE007 growth inh – qHTS Assay for Inhibitors of the HIV-1 protein Vpr; 0.21% of 360,000 active; S. pombe RE007 Vpr strain, BacTiter-Glo ATP luminescence, 24 h; control for the full effect not named in the record; Potency, µM (top dose mostly 92.2 µM), inactives show top-dose activity change, negative = less growth; active = well fitted falling curve with a large enough effect; inconclusive = small, poorly fitted or top-dose-only effect; inactive = no such curve, though single readings can be large or run the other way;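 further: on the % scale 0 is the no-effect control and ±100 the full control effect; nearly all actives have a fitted effect of over 50% in size; the assay follows cell death caused by Vpr and the record does not say whether a fall means rescue or toxicity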
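Fission yeast strain RE007, carrying one chromosomally integrated HIV-1 vpr copy, was seeded at OD 0.01 in PMG+AL medium with 23 nL pinned compound. After 24 h at 30 °C and 99% humidity, viability was read by BacTiter-Glo luminescence.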
Cruzain noTriton – qHTS Assay for Promiscuous and Specific Inhibitors of Cruzain (without detergent). Cruzipain (Trypanosoma cruzi), P25779. purified cruzain, Z-FR-AMC fluorescence, no detergent. Potency, µM, for the others: max response, negative = inhibition, usual class: inhibitors. 2.3% of 200,000 active; active means well fitted curve in the direction sought with a large enough effect; inconclusive means small, poorly fitted or top-dose-only effect, or another doubt; inactive means no such curve, though single readings can be large; an effect the other way counts as inactive or inconclusive;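 further: plate controls were enzyme without inhibitor for no effect and buffer without enzyme for full effect; nearly all actives have a fitted effect of over 40% in size; top concentration of the series not given in the record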
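Detergent-free condition (0.00005% Triton X-100) in acetate buffer pH 5.5 with DTT. 1.5 nM enzyme and compound were pre-mixed 15 min, then 2 uM Z-FR-AMC substrate added; reaction progress from fluorescence change between first and third reads (60 s).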
Starred values were filed as active, the others as inactive; ? = inconclusive; · = no result given; [ ] = dose if it differs, or a comment. Unless noted, the call rests on the fitted dose curve; in most records, active means well fitted rising curve with a large enough effect; inconclusive means small, poorly fitted or top-dose-only effect; inactive means no such curve, though single readings can be large or run the other way. Potency means the concentration at half of the fitted maximal effect.

Below each SMILES – StopGo reporter	LASV entry inh	MARV entry inh	SARS PLP yeast	Cruzain inh Det	NS1 inh	RE007 growth inh	Cruzain noTriton
1. Cc1ccc(-c2cc(-c3ccc(F)cc3)n[nH]2)c(O)c1
    12%	-16%	?	-17%	·	-78%	-10%	·
2. Cc1ccc(-c2csc(-c3c(N)c(C(=O)c4ccc5c(c4)OCO5)n4ccccc34)n2)cc1
    -10%	9%[46.1 µM]	16%[46.1 µM]	·	-1.6%	·	·	?
3. COc1ccc(NC(=O)CCc2c(C)nc3c(-c4ccccc4)c(C)nn3c2C)cc1Cl
    -18%	3%[46.1 µM]	-3%[46.1 µM]	·	2.1%	·	·	-2%
4. COc1ccc(NC(=S)N(CCCN2CCN(C)CC2)Cc2cccs2)cc1
    9%	?	?	12%	-1.6%	-9%	-9%	7%
5. CCN(CC)S(=O)(=O)c1ccc(NC(=O)C2CCCN(C(=O)c3ccc(Cl)cc3)C2)cc1 (centres undefined)
    0%	?	?	10%	-5.8%	8%	-5%	3%
6. CC1CC(=O)Nc2ccccc2N1S(=O)(=O)c1ccc(C#N)cc1 (centres undefined)
    -2%	12%	?	0%	·	2%	4%	·
7. CCOc1ccccc1CNC(=O)c1ccc(Cn2c(SCc3ccccc3)nc3cccnc32)cc1
    4%	·	12%[46.1 µM]	·	-5.1%	·	·	-23%
8. O=C(O)Cn1c(=O)c2cccn2c2ccccc21
    -29%	·	·	-2%	·	4%	3%	·
9. CC(=O)Oc1ccc2c(=O)c(Oc3ccccc3)coc2c1OC(C)=O
    -2%	?	?	-5%	-2.2%	13%	·	3%
10. CCN1CCN(C(=O)c2cc3c(-c4ccc(Cl)cc4)nn(C)c3s2)CC1
    ?	·	·	-6%	-11%	-19%	-7%	-9%
11. CCN(CC)S(=O)(=O)c1ccc(N2CCN(C)CC2)c(NC(=O)Nc2ccccc2F)c1
    -5%	·	?	-1%	·	-19%	-7%	·
12. CC(=O)N1CCc2cc(S(=O)(=O)CCC(=O)NCc3ccc(C)o3)ccc21
    -10%	?	16%[46.1 µM]	-3%	·	13%	-2%	·
13. Cc1c(/C=C/C(=O)c2ccc(C(C)C)cc2)cnn1C
    -1%	?	14%[46.1 µM]	0%	·	6%	-6%	·
14. O=C(CSc1ccc(Cl)cc1)Nc1ccc(N2CCN(C(=O)c3ccco3)CC2)cc1
    20µM*	-22%	?	0%	-1.2%	18%	4%	-10%
15. COc1ccc(C(=O)NC(=O)Nc2ncccc2C)cc1
    0%	?	?	13%	12%	-17%	17%	-3%
16. CC(C)(C)NC(=O)C1CCN(S(=O)(=O)c2cccc(C(F)(F)F)c2)CC1
    -8%	2%	-19%	-2%	·	·	13%	·
17. COc1cc(NC(=O)c2csc3c2CCCC3)ncn1
    ·	0%	?	1%	-1.9%	-6%	4%	-10%
18. COc1ccc(CC(NC(C)=O)C(=O)NC2CCN(C(=O)c3ccc(OC)c(OC)c3)CC2)cc1OC (centres undefined)
    5%	·	·	1%	·	0%	4%	·
19. CCN(CC)S(=O)(=O)c1ccc(Cl)c(C(=O)Oc2cccc(-c3cnc4ccccc4n3)c2)c1
    9%	?	?	·	0.3%	-8%	17%	-23%
20. Cc1ccc(-n2c(SCC(=O)Nc3ccc4c(c3)OCO4)nnc2-c2ccoc2C)cc1
    ?	-2%	?	?	-8.3%	-42%	23%	4%

21) CCCOc1ccc(N2C(=O)CC(N(CCC)C(=O)CCC(=O)O)C2=O)cc1 (centres undefined)
22) COCCn1c(N)c(S(=O)(=O)c2cccs2)c2nc3ccccc3nc21
23) O=C(CC(C(=O)N1CCc2ccccc21)n1ccnc1)NCc1cccnc1 (centres undefined)
24) COc1ccc(N(Cc2cc3ccccc3[nH]c2=O)C(=O)C2CCCO2)cc1 (centres undefined)
25) CCCCCC(=O)NNC(=S)NC(=O)c1ccccc1[N+](=O)[O-]
26) N#Cc1ccccc1NC(=O)CSc1ncn[nH]1
27) CC1=CC2(C#N)C3(N=C(N)C2(C#N)C(c2ccccc2)N1)OCCO3 (centres undefined)
28) Cc1ccccc1CNCCSc1nnnn1C

assay / compound	21	22	23	24	25	26	27	28
StopGo reporter	-20%	·	16%	-25%	-22%	-17%	10%	0%
LASV entry inh	-15%	23%	2%	-11%	-28%	17%[46.1 µM]	30%	-11%[46.1 µM]
MARV entry inh	23%	-5%	2%	0%	-18%[46.1 µM]	·	?	2%[46.1 µM]
SARS PLP yeast	-7%	1%	-17%	9%	0%	·	3%	·
Cruzain inh Det	-1.1%	?	1.2%	-1.8%	·	-1.2%	4.5%	0.0%
NS1 inh	-3%[9.22 µM]	-7%	-6%	6%	2%	·	-1%	·
RE007 growth inh	-5%	-2%	0%	-10%	-13%	·	12%	·
Cruzain noTriton	-5%	18%	-4%	1%	·	14%	0%	17%

29) CN(C)c1cc(-c2ccc(Cl)cc2)oc(=O)c1Cl
30) C/C(=N/NS(=O)(=O)c1ccc(F)cc1)c1ccncc1
31) COc1ccccc1NC(=O)c1ccc(NC(=O)COC(=O)C2CCCO2)cc1 (centres undefined)
32) C/C(=N\NC(=O)c1c(C)nc2ccccn12)c1ccc(N2CCOCC2)cc1
33) CCCOc1ccc(C(=O)CCN2CCCCC2)cc1
34) CCc1ccc(NC(=O)CSc2nc3c(c(=O)n(C)c(=O)n3C)n2C)cc1
35) CCc1c(C)c(C#N)c2nc3ccccc3n2c1NCC1CCCO1 (centres undefined)
36) CCN(CC(=O)Nc1c(F)cccc1F)C(=O)c1ccc(N2C(=O)c3ccccc3C2=O)cc1

assay / compound	29	30	31	32	33	34	35	36
StopGo reporter	-14%	4%	-8%	-2%	-23%	-21%	-18%	-8%
LASV entry inh	15%	26%[46.1 µM]	·	18%[46.1 µM]	?	5%	-3%	-2%[46.1 µM]
MARV entry inh	-2%[46.1 µM]	0%[46.1 µM]	·	-5%[46.1 µM]	?	0%	-1%	3%
SARS PLP yeast	-2%	10%	-3%	1%	-12%	-2%	5%	-3%
Cruzain inh Det	·	·	·	·	-8.0%	-1.8%	3.3%	·
NS1 inh	-30%	13%	2%	-6%	-43%	-39%	1%	·
RE007 growth inh	18%	-2%	1%	10%	18µM*	3%	-4%	26%
Cruzain noTriton	·	·	·	·	-5%	7%	-5%	·

37) CS(=O)(=O)N1CCN(c2ccccc2NC(=O)c2ccc(-c3ccc(Cl)cc3Cl)o2)CC1
38) O=C(CNC(=O)c1cc2c(s1)CCC2)Nc1ccccc1Br
39) Cc1cccc(NC(=O)Cn2cc(C(=O)C3CCCCC3)c3ccccc32)c1
40) COc1cccc(NC(=O)N[C@@H](Cc2ccccc2)C(=O)O)c1
41) CC(C)C(=O)N1CCC(n2nccc2NC(=O)CCOc2ccccc2)CC1
42) N/C(=N\NC(=O)c1cccc(F)c1)c1cc2ccccc2oc1=O
43) CCc1ccc(N(CC)C(=O)c2ccc3c(=O)n4c(nc3c2)CCCCC4)cc1
44) Fc1cccc(Nc2nc3ccccc3n3nnnc23)c1

assay / compound	37	38	39	40	41	42	43	44
StopGo reporter	-31%	29%	-10%	-24%	12%	17%	40µM*	23%
LASV entry inh	?	8%	1%[46.1 µM]	13%	-4%[46.1 µM]	·	-24%[46.1 µM]	·
MARV entry inh	?	7%	?	-3%	3%[46.1 µM]	·	-20%[46.1 µM]	·
SARS PLP yeast	-4%	7%	·	-1%	-1%	-1%	·	7%
Cruzain inh Det	-1.7%	0.6%	1.0%	3.1%	·	·	-2.2%	-0.1%
NS1 inh	?	10%	·	?	1%	4%	·	-1%
RE007 growth inh	-15%	2%	·	4%	5%	8%	·	7%
Cruzain noTriton	3.2µM*	?	-10%	-6%	·	·	20%	?

45) Cc1ccc(Nc2ncc(C(=O)NCCCN3CCN(C)CC3)c3ccccc23)cc1Cl
46) COc1ccccc1-n1cnc2c(c1=O)c1nc3ccccc3nc1n2-c1ccc(C)c(C)c1
47) CC1Cc2ccccc2N1C1=NS(=O)(=O)c2ccccc21 (centres undefined)
48) C=CCn1c(-c2ccccc2)ccc(C#N)c1=O
49) COc1ccc(-c2noc(-c3ccc(NCCc4ccccc4)c([N+](=O)[O-])c3)n2)cc1OC
50) Cc1ccc(C(=O)Nc2c(C(=O)N3CCOCC3)cnn2-c2ccccc2)cc1

assay / compound	45	46	47	48	49	50
StopGo reporter	-29%	-27%	43%[activator]	-13%	0%	-9%
LASV entry inh	?	·	4%	-17%	11%[46.1 µM]	1%
MARV entry inh	?	·	-8%	0%	0%[46.1 µM]	19%
SARS PLP yeast	-4%	-31%	-4%	3%	·	·
Cruzain inh Det	·	-7.4%	-1.5%	-7.1%	-5.8%	5.1%
NS1 inh	0%	17%	-8%	-6%	·	15%
RE007 growth inh	-14%	7%	-17%	-25%	·	0%
Cruzain noTriton	·	?	-15%	3%	?	16%

Molecules from the list above that contain an NH in an aromatic ring, in the order listed:
1) Cc1ccc(-c2cc(-c3ccc(F)cc3)n[nH]2)c(O)c1
24) COc1ccc(N(Cc2cc3ccccc3[nH]c2=O)C(=O)C2CCCO2)cc1 (centres undefined)
26) N#Cc1ccccc1NC(=O)CSc1ncn[nH]1

assay / compound	1	24	26
StopGo reporter	12%	-25%	-17%
LASV entry inh	-16%	-11%	17%[46.1 µM]
MARV entry inh	?	0%	·
SARS PLP yeast	-17%	9%	·
Cruzain inh Det	·	-1.8%	-1.2%
NS1 inh	-78%	6%	·
RE007 growth inh	-10%	-10%	·
Cruzain noTriton	·	1%	14%
